Assay outcomes deposited in PubChem BioAssay by National Center for Advancing Translational Sciences (NCATS).
TRPV1 potentiator: enhances activation of the human vanilloid receptor TRPV1; hit rate 0.02% among 320,000; potentiation, % at 8.33 µM; TRPV1-expressing cells, Fluo-8 calcium influx, capsaicin EC20 potentiation; host cell line not named in the record; control for the full effect not named in the record; Q8NER1; active means potentiation above 80%; inconclusive means 30% to 80%; inactive means below 30%; also: 0% is about no effect
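Cells expressing TRPV1 were dye-loaded with Fluo-8 and read kinetically: 10 s baseline, 3 min after compound (agonist portion), then 2 min after EC20 capsaicin (allosteric enhancer portion). Calcium-bound dye fluorescence at 480/520 nm.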
Menin-MLL FL inh: menin-MLL binding inhibition, fluorescein peptide; Fluorescence polarization, fluorescein-MLL peptide displacement from menin; FP activity change, % at 61.4 µM; 290,000 tested, under 10 active; inconclusive = falling polarisation curve, or a change in total fluorescence; inactive = total fluorescence flat and polarisation flat or rising; no compound was filed as active; the % refers to the polarisation; negative = inhibition;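 also: % of control where 0% means no effect; inhibitors lower the polarisation; unlabelled MLL peptide was the positive control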
Sfp inh: blocks B. subtilis Sfp PPTase activity; Biochemical Sfp PPTase activity, qHTS; Potency, µM, for inactives: max response, negative = inhibition, most hits filed as inhibitors; hit rate 3.5% among 310,000; AID 1490; active = well fitted inhibition curve with a large enough effect; inconclusive = small, poorly fitted or top-dose-only effect, or another doubt; inactive = no such curve, though single readings can be large or run the other way;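 also: the enzyme is Sfp with the accession as filed and its product quenches rhodamine fluorescence; potency is read from the fitted curve at half-maximal effect; 0% = enzyme reaction without inhibitor and -100% = no enzyme wells; top concentration of the series not given in the record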
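Reaction rates are the 30-min fluorescence difference (ex 525, em 598 nm) in wells containing 15 nM Sfp, 5 uM rhodamine-CoA and 12.5 uM BHQ-2-YbbR at pH 7.6 with 10 mM MgCl2.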
TRPML1 blocker: inhibitors of human TRPML1 channel. Q9GZU1. TRPML1-inducible cells, Ca2+ dye fluorescence, FDSS; active compounds read low; inhibition of EC80 agonist-evoked calcium signal. activity change, negative = inhibition, % (concentration not given with the values). hit rate 0.02% among 390,000; in the data active means activity change below about -50%; inconclusive means about -30% to -50%; inactive means above about -30%;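 also: stimulus is agonist 54-4 at its EC80 concentration; % is scaled to controls: 0 for no effect and ±100 for the full control effect; the text of the record puts the active cut at -80%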
Target sequence (Q9GZU1 whole entry, looked up): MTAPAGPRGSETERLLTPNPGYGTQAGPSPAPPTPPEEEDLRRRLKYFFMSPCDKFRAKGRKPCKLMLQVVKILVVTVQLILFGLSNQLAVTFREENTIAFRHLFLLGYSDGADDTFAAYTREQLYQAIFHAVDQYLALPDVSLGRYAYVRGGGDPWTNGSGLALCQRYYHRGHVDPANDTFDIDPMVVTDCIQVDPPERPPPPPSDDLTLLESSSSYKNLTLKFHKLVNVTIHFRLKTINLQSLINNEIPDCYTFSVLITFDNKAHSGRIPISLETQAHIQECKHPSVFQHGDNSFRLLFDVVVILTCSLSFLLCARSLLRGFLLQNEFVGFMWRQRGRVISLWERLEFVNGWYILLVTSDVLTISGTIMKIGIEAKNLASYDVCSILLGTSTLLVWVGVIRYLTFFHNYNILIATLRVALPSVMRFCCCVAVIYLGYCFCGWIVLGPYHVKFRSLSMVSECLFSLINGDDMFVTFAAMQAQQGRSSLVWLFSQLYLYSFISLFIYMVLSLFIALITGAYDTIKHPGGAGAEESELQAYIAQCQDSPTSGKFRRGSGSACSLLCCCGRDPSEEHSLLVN
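TRPML1-DL cells, Tet-induced overnight (~16 h, 37 °C) at 1,500 cells/well, were loaded with Ca8 no-wash dye plus quencher for 45-90 min at room temperature. Compounds were pinned during FDSS kinetic reading; agonist 54-4 at EC80 (4 uM final) then added.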
gsp agonist: activates gsp, the McCune-Albright syndrome mutation. gsp mutant cells, cAMP HTRF, 30 min; control for the full effect not named in the record. Potency, µM (series often up to 76.9 µM), without a hit: top-dose activation (cAMP increase), hits mostly activators. hit rate 0.13% among 340,000. AID 624287; active = well fitted activation curve with a large enough effect; inconclusive = small, poorly fitted or top-dose-only effect, or another doubt; inactive = no such curve, though single readings can be large or run the other way; cell line not stated here;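 also: phosphodiesterase inhibitor Ro 20-1724 added with compounds to block cAMP breakdown; potency is read from the fitted curve at half-maximal effect; nearly all actives have a fitted effect of over 60% in size; about a fifth of the inactives were tested at one dose only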
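Cells stably selected in G418 were plated at 2000/well, grown 16-24 hr, then given compounds in DMSO with the PDE inhibitor […] (300 uM solution added) for 30 min at 37C; cAMP was read by HTRF.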
ClpP mod: qHTS Assay for Activators of ClpP. ATP-dependent Clp protease proteolytic subunit (Bacillus subtilis (strain 168)), P80244. hit rate 1.9% among 340,000. Potency, µM (doses to about 57.5 µM), without a hit: at the highest dose activity change, negative = active. purified B. subtilis ClpP, FRET peptide cleavage, 20 min; active = well fitted falling curve with a large enough effect; inconclusive = small, poorly fitted or top-dose-only effect; inactive = no such curve, though single readings can be large or run the other way; also: potency is read from the fitted curve at half-maximal effect; the source files actives as falling curves though it sought activators and does not explain the sign; nearly all actives have a fitted effect of over 65% in size; many hits overshoot -100%
Target sequence (P80244 whole entry, looked up): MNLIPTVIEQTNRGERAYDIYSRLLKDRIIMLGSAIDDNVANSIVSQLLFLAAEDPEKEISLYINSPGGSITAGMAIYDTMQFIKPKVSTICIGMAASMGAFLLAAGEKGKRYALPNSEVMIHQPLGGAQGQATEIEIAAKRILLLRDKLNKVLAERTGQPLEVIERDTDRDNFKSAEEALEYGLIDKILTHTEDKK
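ClpP 10 microg/mL final, pH 8 Tris/KCl buffer with BSA, glycerol, Tween-20; compound pinned in; FRET-FV substrate; RT 20 min; Ex320/Em430; ΔFRET vs ADEP 5.8 microM, DMSO, no enzyme.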
gsp antag: antagonizes gsp, the McCune-Albright syndrome mutation. AID 624288. gsp-mutant cells, cAMP HTRF, 30 min; control for the full effect not named in the record. Potency, µM (doses to about 76.9 µM), for inactives: at the highest dose activity change, negative = inhibition, actives largely listed as inhibitors. hit rate 0.4% among 340,000; active = falling curve of any shape with a large fitted effect; inconclusive = falling curve, mostly with a smaller effect; inactive = flat or rising curve; cell line not stated here;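 also: intracellular cAMP measured with PDE inhibitor Ro 20-1724 present during compound exposure; potency is read from the fitted curve at half-maximal effect; % is scaled to controls: 0 for no effect and ±100 for the full control effect; nearly all actives have a fitted effect of over 65% in size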
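Cells, 2000/well, grown 16–24 h in DMEM 10% FBS with 0.5 mg/ml G418, then compounds plus […] (300 uM addition stock), 30 min at 37C. cAMP read by HTRF (cAMP-d2 and anti-cAMP antibody-K in lysis buffer) after 30 min RT.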
Active calls of the source: *; ? = inconclusive; nt = no result given; [ ] = remark or other dose.

SMILES	TRPV1 potentiator	Menin-MLL FL inh	Sfp inh	TRPML1 blocker	gsp agonist	ClpP mod	gsp antag
NC(=O)CSc1nc(-c2ccccc2)nc2ccccc12	-4	7.6	-16%	-17	?	-0.1%	-12%
Cc1ccc(NC(=O)c2cc3c(s2)CCC3)cc1S(=O)(=O)N1CCOCC1	-1	6.7	4%	-4	9%	?	-28%
O=C(N/N=C/c1ccccn1)c1cc(Br)ccc1O	5	3.6	5%	13	-51%[inhibitor]	-1.6%	-4%
CCc1ccccc1NC(=O)c1ccc(S(=O)(=O)N2CCCC2)cc1	-12	nt	17%	14	-67%[inhibitor]	nt	-6%
O=C1C(Cl)=C(NCCCN2CCOCC2)C(=O)N1CCc1ccccc1	10	5.0	4%	18	-7%	0.6%	-12%
CCCCCn1c(=NC(=O)c2cccnc2)c(C#N)cc2c(=O)n3cccc(C)c3nc21	nt	nt	nt	0	1%[15.4 µM]	nt	-7%
CCN(CC)c1ccc(/C=N/n2c(C)cc(C)cc2=O)cc1	4	-1.3	8%	-13	11%	-7.8%	-3%
Cc1ccc(S(=O)(=O)N2CCN(C(=O)COC(=O)c3ccc(Cl)nc3)CC2)c(C)c1	5	nt	nt	6	-7%	1.6%	9%
CC1(c2nnc(Cc3ccccc3)o2)CC(c2cccnc2)=NO1 (centres undefined)	nt	nt	nt	-11	-39%	-7.2%	11%
O=[N+]([O-])c1cccc(-c2nnc(C34CC5CC(CC(C5)C3)C4)o2)c1	4	0.5	0%	14	-35%[15.4 µM]	1.2%	-3%
CCCCOC(=O)N1CCOCCOCCN(C(=O)OCCCC)CCOCCOCC1	23	0.8	9%	59	0%	-0.8%	-18%
C#CCOCCOCCOCCNc1nc(N2CCN(C(=O)[C@H]([C@@H](C)CC)n3cc(CCCCN)nn3)CC2)nc(N2CCN(C(=O)[C@H](C)n3cc(CCCN=C(N)N)nn3)CC2)n1	28	nt	nt	-14	nt	0.2%	1%
CO/N=C/c1ccc(Sc2ccccc2N)c([N+](=O)[O-])c1	-14	-0.6	-10%	6	-10%	1.0%	-2%
COc1ccc(CN2CCN(Cc3c[nH]c4ccccc34)CC2CCO)cc1C (centres undefined)	-13	0.8	4%	-16	15%	-3.9%	2%
Cc1ccc(S(=O)(=O)Nc2ccc(N3CCOCC3)cc2)cc1	9	3.6	-2%	-1	-20%	0.0%	-13%
O=C1CN(C(=O)c2ccc(F)cc2)c2ccccc2N1	18	nt	15%	23	-1%	0.8%	6%
CCc1ccc(Nc2ncc3c(n2)CC(C)CC3=O)cc1 (centres undefined)	-15	-1.0	2%	2	-11%[15.4 µM]	nt	9%
c1ccc(-c2cnnc(SCc3cn4cccnc4n3)n2)cc1	-11	0.2	?	0	?	-0.8%	13%
c1cncc(CSc2nnc(-c3cccnc3)n2Cc2ccco2)c1	7	-1.2	16%	nt	nt	nt	nt
Oc1ccc(C2CNCc3sccc32)cc1O (centres undefined)	4	3.7	nt	4	nt	0.2%	-3%
Cc1cccc(NC(=O)COc2cccc3c2CCN(C)C3=O)c1C	5	3.8	0%	-4	0%[15.4 µM]	nt	-15%
COC(=O)C1=C(CN2CCc3ccccc32)NC(=O)NC1c1cc(C)ccc1C (centres undefined)	-10	?	?	-3	-31%[inhibitor]	-2.2%	-1%
c1coc(-c2cc(C3CCNCC3)[nH]n2)c1	17	3.9	6%	-8	-11%[15.4 µM]	nt	15%
COc1cc(CNCCCCO)ccc1OCc1ccccc1F	-4	-2.2	6%	23	20%	nt	5%
CC(NC(=O)c1cccs1)C(c1cccs1)N1CCN(Cc2ccccc2)CC1 (centres undefined)	2	0.4	7%	5	-2%	-0.3%	-17%
CC1CCC2(CC1)NC(=O)N(NC(=O)c1ccc(OC(C)C)cc1)C2=O (centres undefined)	4	nt	nt	0	4%	-3.1%	11%
Cc1cccc(OCC(=O)NCCNC(=O)c2ccncc2)c1	1	-3.4	12%	25	2%[15.4 µM]	nt	3%
CC(C)(C)C1=CC(O)(c2ccccc2)C=C(C(C)(C)C)C1=O	-12	0.4	22%	nt	?	0.5%	-24%
C[C@H](NC(=O)c1cccc([N+](=O)[O-])c1)C(=O)OCC(=O)c1ccccc1Br	nt	nt	nt	-5	6%	-3.2%	-15%
COC(=O)C1=C(C)N(C)C(=O)NC1c1cc(Cl)cc(Cl)c1OC (centres undefined)	-7	0.3	13%	-5	-39%[inhibitor]	-1.3%	-17%
O=C(NC1CCCCC1)C(c1ccco1)N(C(=O)c1csnn1)c1cccc(F)c1 (centres undefined)	-9	2.5	7%	-4	-34%[inhibitor]	nt	-10%
Cc1cc(C(=O)NP(=O)(N2CCOCC2)N2CCOCC2)c(C)n1-c1ccc(Br)cc1	-9	4.6	7%	-12	8%	nt	6%
COc1cc2c(cc1OC)CN(C(=S)Nc1ccccc1Cl)CC2	-3	0.5	-2%	-7	20%	-8.0%	-26%
CC(C)OCCCNC(=O)Nc1cccc2ccccc12	-6	1.6	0%	6	-15%	3.9%	7%
COc1ccccc1Nc1ncnc2c1cnn2-c1cccc(C)c1	5	-1.6	-8%	0	0%	13%	-10%
Cc1cccc(/N=C/c2ccccn2)n1	nt	nt	nt	-4	-14%	-21%	-2%
CCCCOc1ccc(C(=O)Oc2cc(C)[nH]c(=O)c2[N+](=O)[O-])cc1	-5	nt	18%	-2	-16%	0.6%	4%
O=C(N/C(=C/c1cccc([N+](=O)[O-])c1)C(=O)N1CCCCCC1)c1cccs1	-8	6.2	-22%	11	-20%	-1.2%	-18%
COc1ccc(N2CCN(C(=O)CCc3ccc(S(=O)(=O)NCC(C)C)cc3)CC2)cc1	0	4.6	9%	-5	5%	25µM*	-17%
N#CCC(=O)N/N=C/c1ccccc1Cl	1	8.4	-1%	-5	8%[15.4 µM]	nt	5%
CC(C)c1nnc(SCC(=O)N2CCc3ccccc32)n1N	-14	-4.2	-8%	1	-5%[15.4 µM]	-2.8%	6%
COc1ccc(-c2oc3ccc(N4CCOCC4)cc3c2C#CC2(O)CCCCC2)cc1	nt	nt	nt	67	-6%	3.9%	0%
CC(=O)Nc1nc2ccccc2[nH]1	16	-0.5	17%	25	37%	1.3%	6%
Cc1ccc(NC(=O)CCSc2nnc3ccccn23)cc1	?	2.1	11%	-3	?	-22%	-2%
CC(=O)c1cc(Cl)ccc1OCC(=O)NC1CCCC1	-4	nt	nt	11	7%[15.4 µM]	nt	11%
CNC(=O)c1c(NC(NC(=O)c2ccco2)C(=O)c2ccc(Cl)cc2)sc2c1CCCC2 (centres undefined)	2	5.6	25µM*	10	?	0.4%	-15%
N#CC(=C(O)CN1CCN(c2ccccc2F)CC1)c1nc(-c2ccc(Cl)cc2)cs1	nt	nt	nt	9	?	nt	-5%
O=C(Cn1nnc(-c2ccccc2Cl)n1)NCc1ccc2c(c1)OCO2	-29	-0.1	25%	0	3%	-2.1%	5%
Cc1cc(=O)n2nc(N3CCC(C(=O)N4CCN(C)CC4)CC3)sc2n1	30	4.1	10%	-4	-6%	-2.0%	-1%
O=C(O)CSc1nc2ccccc2o1	1	-0.6	1%	-23	2%	-2.7%	1%
COc1ccc(C(=O)N2CCN(c3ccc(C(C)=O)cc3F)CC2)cc1S(=O)(=O)NC1CC1	-9	nt	nt	10	-12%	-0.9%	-3%
COc1ccc(N(CC(=O)NCc2ccccc2OC)S(=O)(=O)c2c(C)nn(C)c2C)cc1	nt	3.6	6%	0	-23%	-5.9%	6%
CCC(C(=O)OCC(=O)N(CC)c1c(N)n(Cc2ccccc2)c(=O)[nH]c1=O)c1ccccc1 (centres undefined)	-1	nt	nt	-10	-16%	2.7%	12%
C=CC[C@H](CC(=O)N(CCO)Cc1ccccc1)C(=O)N[C@H](COC(=O)[C@@H](CC=C)CC(=O)OC(C)(C)C)Cc1ccccc1	nt	nt	nt	-4	2%	1.0%	?
Cc1ccc(C(=O)N2CCN(c3ccc([N+](=O)[O-])c(NCc4cccnc4)c3)CC2)cc1	?	1.7	-15%	-11	-17%[15.4 µM]	0.4%	?
CCC(=O)Nc1ccc(-c2csc(C)n2)cc1	-1	3.3	11%	-14	-42%[inhibitor]	3.9%	6%
CCCN(C(=O)c1ccc([N+](=O)[O-])c(C)c1)c1c(N)n(Cc2ccccc2)c(=O)[nH]c1=O	-10	nt	nt	-4	24%	-0.6%	7%
Cc1cc(C)n(-c2nc3nonc3nc2-n2nc(C)cc2C)n1	-3	-2.2	4%	20	?	-2.3%	1%
CC1Oc2ccccc2N(CC(=O)Nc2ccccc2F)C1=O (centres undefined)	2	1.8	7%	-5	10%[15.4 µM]	1.0%	9%
CC(C)C[C@H]1COc2cc(Br)ccc2S(=O)(=O)N1	nt	nt	nt	-22	-35%[inhibitor]	2.1%	nt
Further records
SMILES	TRPV1 potentiator	Menin-MLL FL inh	Sfp inh	TRPML1 blocker	gsp agonist	ClpP mod	gsp antag
CCOC(=O)C(Cc1ccc(O)c([N+](=O)[O-])c1)N1C(=O)c2ccccc2C1=O (centres undefined)	nt	nt	nt	-6	-3%	6.2%	?
CONC(=O)C1CCN(C(=O)OCc2ccccc2)CC1	-2	-1.8	8%	-4	-1%	-1.9%	8%
CC12CCC(=O)N1C(C(=O)NCCN1C(=O)S/C(=C\c3ccc(F)cc3)C1=O)CS2 (centres undefined)	1	nt	nt	-5	-15%	0.5%	-5%
Cn1c(C(=O)OC(C(=O)NC2CCCC2)c2cccnc2)cc2sccc21 (centres undefined)	24	1.8	25%	-4	9%	-0.6%	-20%
O=[N+]([O-])c1ccccc1/C=N\N1CCN(Cc2ccccc2Cl)CC1	4	-6.0	-18%	-1	0%	-0.3%	7%
COCCNC(=O)CC(c1ccccc1)c1ccccc1	6	-0.7	17%	14	?	1.5%	7%
O=C(/C=C/c1c(F)cccc1Cl)N1CCOCC1	-25	nt	5%	9	17%	1.3%	10%
COc1ccc(OC)c(NC(=O)CSc2nnc(-c3cnccn3)n2C)c1	10	nt	7%	-1	-7%	0.8%	10%
O=C(Nc1ccc(S(=O)(=O)Nc2cnc3ccccc3n2)cc1)c1cc(F)c(F)cc1Cl	5	nt	21%	-5	-6%[15.4 µM]	-1.2%	-1%

Not a hit list; any-hit rate near 4.9%.
